Screening data: PubChem, National Center for Advancing Translational Sciences (NCATS)
NS1 function inh: qHTS Assay for Inhibitors of Influenza NS1 Protein Function | Potency, µM (highest dose often 46.1 µM), for inactives: top-dose activity, positive = more growth | S. cerevisiae slowed by influenza A NS1, growth recovery by OD600 | actives 0.4% (n = 270,000); active means well fitted rising curve with a large enough effect; inconclusive means small, poorly fitted or top-dose-only effect; inactive means no such curve, though single readings can be large or run the other way; further: nearly all actives have a fitted effect of over 50% in size
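Recovery from NS1-induced slow growth read by OD600 in budding yeast switched to galactose assay medium (pH 6.0, -URA) at 1:100 dilution. Compound 23 nl per well; the matching strain lacking NS1 serves as control.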
Cruzain noTriton: qHTS Assay for Promiscuous and Specific Inhibitors of Cruzain (without detergent); Cruzipain (Trypanosoma cruzi), P25779; purified cruzain, Z-FR-AMC fluorescence, no detergent; Potency, µM, for the others: max response, negative = inhibition, hits mostly inhibitors; actives 2.3% (n = 200,000); AID 1476, 2009;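 further: plate controls were enzyme without inhibitor for no effect and buffer without enzyme for full effect; nearly all actives have a fitted effect of over 40% in size; top concentration of the series not given in the record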
Target sequence (P25779 123-467 limits assumed): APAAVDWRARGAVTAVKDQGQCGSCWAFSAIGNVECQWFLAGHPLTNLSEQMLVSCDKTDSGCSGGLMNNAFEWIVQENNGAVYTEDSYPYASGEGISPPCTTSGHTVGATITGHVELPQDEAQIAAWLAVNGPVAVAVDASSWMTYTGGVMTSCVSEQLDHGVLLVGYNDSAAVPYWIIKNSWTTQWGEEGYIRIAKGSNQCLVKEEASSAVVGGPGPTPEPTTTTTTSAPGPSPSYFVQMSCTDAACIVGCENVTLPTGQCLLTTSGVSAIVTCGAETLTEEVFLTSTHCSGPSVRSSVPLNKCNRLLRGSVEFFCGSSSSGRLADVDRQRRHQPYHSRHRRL
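Purified cruzain at 1.5 nM, pre-incubated 15 min with compound at room temperature in 100 mM sodium acetate pH 5.5, 5 mM DTT, 0.00005% Triton X-100. Reaction started with 2 uM Z-FR-AMC; AMC fluorescence increase over 60 s gives rate.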
RE007 growth inh: qHTS Assay for Inhibitors of the HIV-1 protein Vpr. Potency, µM (doses to about 92.2 µM), without a hit: top-dose activity change, negative = less growth. S. pombe RE007 Vpr strain, BacTiter-Glo ATP luminescence, 24 h; control for the full effect not named in the record. actives 0.21% (n = 360,000); active = well fitted falling curve with a large enough effect; inconclusive = small, poorly fitted or top-dose-only effect; inactive = no such curve, though single readings can be large or run the other way;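 further: on the % scale 0 is the no-effect control and ±100 the full control effect; nearly all actives have a fitted effect of over 50% in size; the assay follows cell death caused by Vpr and the record does not say whether a fall means rescue or toxicity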
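Fission yeast RE007 carrying one integrated HIV-1 vpr copy, seeded at OD 0.01 in PMG+AL medium with 23 nL pinned compound. Grown 24 h at 30 degrees; viability read by BacTiter-Glo luminescence after 5 min.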
LASV entry inh: qHTS for Inhibitors of binding or entry into cells for Lassa Virus | Lassa virus pseudotype entry inhibition, cell reporter; control for the full effect not named in the record | Potency, µM (top dose mostly 37.9 µM), without a hit: top-dose activity change, negative = inhibition, most hits filed as inhibitors | actives 1.2% (n = 300,000); active means well fitted inhibition curve with a large enough effect; inconclusive means small, poorly fitted or top-dose-only effect, or effect the other way; inactive means flat fitted curve, though single readings scatter; tested in HEK293 cells; further: on the % scale 0 is the no-effect control and ±100 the full control effect; nearly all actives have a fitted effect of over 50% in size; luciferase read-out
Cruzain Triton: qHTS Assay for Promiscuous and Specific Inhibitors of Cruzain (with detergent). actives 0.43% (n = 200,000). Potency, µM, for the others: max response, negative = inhibition, most hits filed as inhibitors. purified cruzain, Z-FR-AMC fluorescence, 0.01% Triton. Cruzipain (Trypanosoma cruzi), P25779;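 further: plate controls were neutral wells for no effect and buffer without enzyme for full effect; nearly all actives have a fitted effect of over 40% in size; top concentration of the series not given in the record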
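Compounds were screened in titration against cruzain (1.5 nM) with 0.01% Triton X-100 to counter colloidal aggregation. Activity was the AMC fluorescence increase over 60 s after adding 2 uM Z-FR-AMC at pH 5.5.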
StopGo reporter: High Throughput Screening for Foot and Mouth Disease Virus Antivirals; actives 1.2% (n = 410,000); human cells with a luciferase reporter of 2A StopGo recoding; control for the full effect not named in the record; Potency, µM (titrated, usually from 57.9 µM), for the others: top-dose signal change, negative = less light; AID 1159524, 2015; active = well fitted falling curve with a large enough effect; inconclusive = small, poorly fitted or top-dose-only effect; inactive = no such curve, though single readings can be large or run the other way; tested in HEK293T cells; further: on the % scale 0 is the no-effect control and ±100 the full control effect; nearly all actives have a fitted effect of over 45% in size; luciferase light after 4 h
MARV entry inh: qHTS for inhibitors of binding or entry into cells for Marburg Virus; Marburg virus pseudotyped entry inhibition, cell reporter; control for the full effect not named in the record; about a third of the inactives were read at about 46 µM; Potency, µM (series often up to 37.8 µM), for inactives: at the highest dose activity change, negative = inhibition, usual class: inhibitors; actives 1.8% (n = 300,000); AID 540276, 2011; active = well fitted inhibition curve with a large enough effect; inconclusive = small, poorly fitted or top-dose-only effect, or effect the other way; inactive = flat fitted curve, though single readings scatter; tested in HEK293 cells; about a fifth of its hits are not listed in these tables; further: on the % scale 0 is the no-effect control and ±100 the full control effect; luciferase read-out
SARS PLpro yeast: qHTS of Yeast-based Assay for SARS-CoV PLP. Potency, µM (top dose mostly 32.9 µM), for the others: at the highest dose activity, positive = growth rescue. actives 0.19% (n = 330,000). AID 485353, 2010. S. cerevisiae expressing SARS-CoV PLpro, growth rescue; control for the full effect not named in the record; active means well fitted rising curve with a large enough effect; inconclusive means small, poorly fitted or top-dose-only effect; inactive means no such curve, though single readings can be large or run the other way; further: 0% is about no effect; nearly all actives have a fitted effect of over 55% in size; growth read by luminescence after 48 h
* hit, by the source's call; ? = inconclusive; / = not tested or not shown; [ ] = another dose, or the depositor's remark. Unless noted, the call rests on the fitted dose curve; in most records, active means well fitted curve in the direction sought with a large enough effect; inconclusive means small, poorly fitted or top-dose-only effect, or another doubt; inactive means no such curve, though single readings can be large; an effect the other way counts as inactive or inconclusive. Potency means the concentration at half of the fitted maximal effect.

entry | SMILES | Cruzain Triton | SARS PLpro yeast | LASV entry inh | MARV entry inh | RE007 growth inh | NS1 function inh | Cruzain noTriton | StopGo reporter
1 | CC(C)NC(=O)c1cc(-c2cccs2)on1 | 2.6% | 0% | ? | ? | -12% | 5% | -7% | 55%[activator]
2 | N#Cc1ccc2ccn(CC(=O)NCc3ccccc3)c2c1 | -4.9% | 5% | -5% | ? | 1% | 2% | ? | /
3 | CC(C)CCn1c(=O)c2ccccc2n2c(=S)[nH]nc12 | / | / | / | -4%[46.1 µM] | -17% | -13% | / | -15%
4 | Cc1ccc2nc3c(cc(C(=O)NCc4ccco4)c(=N)n3Cc3ccco3)c(=O)n2c1 | / | 0% | 3%[46.1 µM] | ? | 9% | -4% | / | 4%
5 | CC(C)(C)C(=O)N1CCc2cc(-c3csc(N)n3)ccc21 | -1.7% | -11% | 2µM* | ? | -11% | -14% | -10% | -48%
6 | CC(NC(=O)c1cccnc1)C(c1cccs1)N1CCN(C)CC1 (stereo not drawn) | 1.8% | 10% | / | / | -3% | 3% | -11% | -4%
7 | CCOC(=O)N1CCc2c(sc(NC(=O)c3ccc(S(=O)(=O)N4CCCC4)cc3)c2C#N)C1 | -15% | 25% | / | / | 2% | -21% | ? | 18µM*
8 | Cc1nc2c(C)cccn2c1/C(O)=C1\C(=O)C(=O)N(CCN2CCOCC2)C1c1ccncc1 (stereo not drawn) | -3.3% | 4% | 2% | 12% | -12% | -12% | -5% | 47%
9 | CC1=C(C(=O)Nc2ccccc2)C(c2ccco2)C(C#N)=C(SCC(N)=O)N1 (stereo not drawn) | -5.6% | 4% | -2% | ? | -11% | 1% | -7% | /
10 | CCS(=O)(=O)Nc1cc(C(=O)OC)ccc1C(=O)OC | ? | 14% | ? | 4% | -3% | -2% | -26% | -16%
11 | Cc1occc1C(=O)NCc1ccccc1F | -5.5% | -2% | 33%[14.3 µM] | 5% | 2% | 0% | -19% | 22%
12 | O=C1C=C(NCCOC23CC4CC(CC(C4)C2)C3)C2(CCCCC2)O1 | / | -1% | ? | 6%[46.1 µM] | -3% | / | / | -7%
13 | NC(=O)CSc1nnc(Cc2csc(Nc3ccc(F)cc3)n2)n1Cc1ccccc1 | -11% | 2% | -2% | ? | 11% | 10% | ? | 1%
14 | COCc1ccc(C(=O)N2CCCC(N3CCN(c4ccccc4C)CC3)C2)s1 (stereo not drawn) | / | -5% | -27%[46.1 µM] | ? | -3% | -16% | / | -26%
15 | CCn1c(SCC(=O)Nc2ccc(C(C)=O)cc2)nc2nc3c(cc2c1=O)CCCC3 | -3.0% | -7% | -4% | -15% | -18% | 20% | 26% | 25%
16 | Cc1cc(C)c2cc(C#N)c(SCC(=O)NCC3CCCO3)nc2c1 (stereo not drawn) | 4.2% | -9% | 0% | -12% | 4% | -3% | -18% | 8%
17 | CCOC(=O)C(C)Sc1nc(=O)n2cc(C)ccc2n1 (stereo not drawn) | / | -3% | 0% | 15%[46.1 µM] | 4% | 3% | / | 33%[activator]
18 | O=C(Nc1ccc(Cl)cc1)Nc1cc([N+](=O)[O-])ccc1F | -14% | -5% | -3% | 2% | / | -31% | 1% | -9%
19 | COC(=O)c1sc(N2C(=O)c3oc4ccccc4c(=O)c3C2c2ccc(O)cc2)nc1C (stereo not drawn) | 4.8% | / | 3%[46.1 µM] | 25%[46.1 µM] | / | / | -13% | -20%
20 | c1cncc(C2OCC3(CO2)COC(c2cccnc2)OC3)c1 (stereo not drawn) | / | -2% | / | / | 12% | 7% | / | 26%
21 | Cc1ccc2nc(-c3ccc(NC(=O)c4cccnc4)cc3)oc2c1 | / | -1% | ? | ? | 11% | 1% | / | -7%
22 | O=C(NCC1CCCO1)c1ccc(COc2ccc(Br)cc2)cc1 (stereo not drawn) | -9.7% | 6% | ? | ? | 54% | -16% | 16% | ?
23 | COc1ccc(CN(C)C(=O)Cc2ccc(OC)c(S(=O)(=O)N3CCOCC3)c2)cc1 | / | 3% | 2% | 18%[46.1 µM] | -17% | / | / | -11%
24 | O=C(CC1CCCCC1)NCc1ccccn1 | 5.1% | 0% | -10% | 1% | 5% | 0% | -11% | 25%
25 | Cc1ccc(-c2cc(C(F)(F)F)n3nc(-c4ccc(Cl)cc4)cc3n2)cc1 | -1.4% | / | 2%[46.1 µM] | -2%[46.1 µM] | / | / | 3% | 7%
26 | COCC(=O)N(Cc1cc2ccc(C)cc2[nH]c1=O)c1ccc(C)cc1C | / | -5% | 14% | ? | 11% | 12% | / | -18%
27 | CCOc1ccccc1NC1=C(Cl)C(=O)N(c2ccc(OC)cc2)C1=O | -7.3% | -30% | 1% | 2% | 14% | -5% | -21% | -18%
28 | COc1cc(C)c(NC(=O)COc2ccc3c(c2)OCO3)cc1C | / | -1% | 2%[46.1 µM] | -6%[46.1 µM] | -5% | -14% | / | 30%[activator]
29 | Cc1ccc(-c2cnc(NCc3ccc(C(C)C)cc3)n2C)cc1 | -0.6% | / | -19%[46.1 µM] | 8%[46.1 µM] | / | / | 16% | -20%
30 | CN(CC(=O)Nc1ccc(F)cc1)C(=O)COC(=O)c1cc([N+](=O)[O-])ccc1N1CCOCC1 | / | -3% | 1% | -29%[46.1 µM] | -3% | / | / | 1%
31 | O=C(O)c1sc2cc(C(F)(F)F)cnc2c1-c1cccs1 | / | 1% | 8% | ? | -15% | / | / | 5%
32 | Nc1ccccc1Nc1ccc([N+](=O)[O-])cc1[N+](=O)[O-] | -6.2% | 19% | -9% | ? | 17% | 1% | -2% | -23%
33 | CC1(C(=O)OCC(=O)Nc2ccccc2Cl)CC1(Cl)Cl (stereo not drawn) | / | -7% | ? | 6%[46.1 µM] | 1% | -33% | / | -5%
34 | O=C(Nc1ccccc1C(=O)O)c1cc(S(=O)(=O)N2CCCCCC2)ccc1Cl | / | -1% | -15%[46.1 µM] | 16%[46.1 µM] | 9% | 22% | / | 39%[activator]
35 | Cc1cc(C)c2c(=O)c3c(oc2c1)C(=O)N(CCO)C3c1cccc(O)c1 (stereo not drawn) | -5.8% | 0% | -4% | ? | 4% | ? | -4% | 0%
36 | Cc1ccccc1NC(=O)NC1(C(=O)NCc2ccco2)CCCCC1 | / | 3% | 10% | -9%[46.1 µM] | 7% | 13% | / | 1%
37 | COCc1cc(C)nc(OCC(=O)N/N=C/c2ccc(OC)c(O)c2)c1C#N | 0.3% | 6% | -1% | ? | -18% | -13% | 9% | -4%
38 | Cc1cc(C(=O)Nc2c(C)n(C)n(-c3ccccc3)c2=O)on1 | 4.1% | -12% | / | / | -6% | 3% | 7% | -22%
39 | CCc1cc(C(=O)OC)c(NC(=O)CC2Sc3ccc(C(F)(F)F)cc3NC2=O)s1 (stereo not drawn) | 2.6% | 24% | ? | ? | 13% | 5% | 0% | -6%
40 | CSc1ccc(NC(=O)Nc2cccn(Cc3ccccc3)c2=O)cc1 | / | 5% | ? | / | 10% | -7% | / | ?
41 | CN1CCN(C(=O)c2ccc(S(=O)(=O)c3ccc(Br)cc3)cc2)CC1 | -0.6% | 11µM* | 11% | ? | 14% | -16% | 0% | -30%
42 | COCCOC(=O)c1[nH]c2c(c1C)C(=O)CC(c1cc(OC)ccc1OC)C2 (stereo not drawn) | 1.1% | -1% | / | / | -17% | -3% | 1% | -9%
43 | N#Cc1ccccc1CSc1nc2ccc(NC(=O)c3ccccc3C(=O)O)cc2s1 | / | -2% | ? | ? | 53% | 9% | / | 14%
44 | Cc1cc(Cl)c2oc(C(=O)N(C)Cc3nccn3C)c(C)c2c1 | / | -2% | / | / | 12% | -27% | / | 14%
45 | Cn1c(CC(=O)Nc2ccc(Cl)c(Cl)c2)nnc1SCC(=O)N1CCN(c2ccccc2)CC1 | -4.1% | 0% | -2% | -18% | -4% | 16% | ? | ?
46 | O=C(COc1ccc(Cl)cc1)NCCc1csc(-c2ccc(C(F)(F)F)cc2)n1 | -8.1% | / | 9%[46.1 µM] | / | / | / | ? | ?
47 | COc1ccc(NS(=O)(=O)c2ccc(Oc3ncccn3)cc2)cc1 | 1.7% | -3% | ? | ? | 6% | -4% | -3% | -5%
48 | CCCCCCC(=O)c1c(O)n(-c2ccccc2OC)c(=O)[nH]c1=O | -1.1% | -2% | -2% | 17% | 3% | -9% | -3% | -2%
49 | COc1cc(/C=N\NC(=O)c2sc(N)nc2C)cc(OC)c1OC | -2.5% | 7% | -11% | ? | 19% | 18% | -1% | 31%[activator]
50 | CC(Sc1nc2ncc(Cl)cc2[nH]1)C(=O)c1c(N)n(C)c(=O)n(C)c1=O (stereo not drawn) | / | -1% | -7% | 9% | 6% | / | / | ?

Next section.
entry | SMILES | Cruzain Triton | SARS PLpro yeast | LASV entry inh | MARV entry inh | RE007 growth inh | NS1 function inh | Cruzain noTriton | StopGo reporter
51 | CCOC(=O)N1CCC(NC(=O)c2ccc3c(c2)N(Cc2ccc(F)cc2)C(=O)c2ccccc2S3(=O)=O)CC1 | -1.1% | / | 8%[46.1 µM] | ? | / | / | ? | -3%
52 | Cc1ccc(-c2nc(CS(=O)(=O)CC(=O)N3CC(C)CC(C)C3)c(C)o2)cc1 (stereo not drawn) | -5.6% | -7% | / | / | -10% | -27% | ? | ?
53 | CC(=O)N1CCCc2cc(S(=O)(=O)N3CCc4ccccc4C3)ccc21 | 0.8% | -1% | 2% | -20%[46.1 µM] | -15% | 7% | ? | -29%
54 | Cc1ccc(-n2nnc(-c3nc(-c4cccs4)no3)c2N)c(C)c1 | 2.2% | / | 16%[46.1 µM] | / | / | / | 4% | 24%
55 | COc1cccc(CN(C)C(=O)c2ccccc2Sc2ccccc2C#N)c1 | / | -1% | -28% | -28% | -10% | -5% | / | -12%
56 | CS(=O)(=O)N1CCN(c2ccccc2F)CC1 | 0.0% | / | 0% | ? | -4% | -1% | 0% | -13%

Not a hit list, and some 4.6% of all compounds hit somewhere here.
